Bioassay records from PubChem BioAssay.
NPYLR7 agonist: mosquito NPYLR7 agonism | HEK293T NPYLR7/Galpha15, GCaMP6s calcium fluorescence | activation, % at 10 µM | 270,000 compounds, 0.15% hits | AID 1259423; in the data active = activation above about 40%;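 note: 0% = vehicle and 100% = reference agonist at the receptor; some compounds past the cut are filed as inactive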
NPYLR7 agonist max-min: also measured in NPYLR7 agonist; calls as there; activation, %; measured here: Max-Min RFU normalised activation; some inactives read as strong as hits;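 span of the calcium signal over five minutes; 0% = vehicle and 100% = native peptide agonist; compound fluorescence can raise it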
Starred values were filed as active, the others as inactive; & = joins results of further samples. Some of the compounds tested, so the mix of outcomes need not match the whole.

Molecule	NPYLR7 agonist	NPYLR7 agonist max-min
COc1ccc(CN2CCC(n3nccc3NC(=O)c3ccccc3C)CC2)cc1	17.2	5.9
COc1ccc(CN(Cc2nc3cc(C)ccc3o2)C(=O)c2cccc(C#N)c2)cc1	2.9	0.6
O=C(NCC(C1CCOC1)N1CCCC1)Nc1ccccc1Cc1ccccc1 (stereo not given)	3.4	-0.4
COC(=O)/C(=C\c1cccnc1)NC(=O)c1ccc(OCc2ccccc2)cc1	9.1	3.8
CCCSc1nc2nc3c(cn2n1)C(=O)CCC3	-2.8	-4.3
CN1CCN(n2c3c(c(SCC(=O)NC4CCCCC4)nc2=O)CCC3)CC1	-1.8	-6.7
COC(=O)Cn1nc(C)c2cnn(-c3ccccc3)c2c1=O	5.3	0.9
COc1ccc(NC(=O)N2CC3CCCC32)cc1-n1nnnc1C (stereo not given)	4.3	-1.1
CCOc1ccc(-n2c(C(C)N(CC(C)C)C(=O)c3ccc(C)c([N+](=O)[O-])c3)nc3ccccc3c2=O)cc1 (stereo not given)	21.5	22.7
CCc1ccccc1CN1CCN(c2ccc(C(=O)N3CCCC3)cn2)CC1	-7.8	-9.8
CN1CCN(C(CNS(=O)(=O)c2ccc(F)cc2)c2cccn2C)CC1 (stereo not given)	12.2	12.4
CCCCOc1ccc(S(=O)(=O)NCCOc2ccc(-c3ccc(OCC)cc3)nn2)cc1	-2.2	-1.6
O=c1[nH]c(CCl)nc2sc3c(c12)CCN(Cc1ccccc1)C3	45.3*	50.1*
COc1cccc(CNc2nccn(-c3cccc(Cl)c3)c2=O)c1	0.1	-1.8
CC(C)C(=O)OCCN1C(=O)c2cccc3c(N4CCOCC4)ccc(c23)C1=O	17.9	6.1
COc1ccccc1Cn1cc(C(=O)NCc2ccc(OC)c(OC)c2)sc1=O	1.2	0.1
Cc1ccccc1C1c2cccn2CCCN1Cc1cccc(Oc2ccccc2)c1 (stereo not given)	16.2	23.8
Cc1cc(C)nc(N2CCC(C(O)c3ccccc3)CC2)n1 (stereo not given)	-4.3	-3.0
CCOc1ccccc1OCCC(=O)Nc1ccc(NC(C)=O)c(Cl)c1	-2.0	-2.6
COCCN(C(=O)CCl)c1c(N)n(Cc2ccccc2)c(=O)[nH]c1=O	-8.5	-16.0
CC1C(=O)N(c2ccccc2-c2ccccc2)CCN1C(=O)c1ccc(Cl)cc1Cl (stereo not given)	-3.5	6.2
C/C(=C/C(=O)NCCC(=O)N(C)C)c1ccc(C(F)(F)F)cc1	9.6	8.6
CC1CCC(NC(=O)c2ccc(SCC(=O)c3ccc(Cl)cc3)nc2)CC1 (stereo not given)	-2.0	-6.8
CCN(CC)C(=O)Oc1ccc2c(ccn2Cc2ccccc2Cl)c1NC(=O)c1c(Cl)ccc(C)c1F	1.9	0.1
COCCCN(CC(=O)Nc1cc(-c2ccccc2)nn1-c1ccc(F)cc1)C(=O)Nc1c(Cl)cccc1Cl	23.7	28.2
Cn1c(SCC(=O)Nc2nc3ccccc3s2)nnc1-c1ccc(=O)n(C)c1	2.0	-0.5
CCCn1c(SCC(=O)NC(C)(C#N)C(C)C)n[nH]c1=O (stereo not given)	15.0	21.4
O=C(Nc1ccc(N2CCc3ccccc3C2)c(C(=O)NCc2cccnc2)c1)c1cc(C(F)(F)F)cc(C(F)(F)F)c1	-2.1	7.4
CC(Cc1ccsc1)NC(=O)NC(C)c1ccc(S(C)(=O)=O)cc1 (stereo not given)	-1.1	-0.6
O=C(CCC(=O)N1CCN(CC(=O)N2CCCC2)CC1)NC1CCCC1	1.1	11.3
Cc1ccc(NC(=O)C(C)n2cccn2)c(Br)c1 (stereo not given)	2.1	0.3
COc1ccc(C(=O)N(CC(=O)N2CCc3sccc3C2COc2cccc(F)c2)C2CC2)cc1 (stereo not given)	-2.4	1.8
O=C(NC1CCCC[C@H]1N(Cc1ccc(Cl)cc1)C(=O)c1ccccc1)C1CCCN(C(=O)Cc2cccs2)C1 (stereo not given in full)	33.0	29.5
COCCNC(=O)c1sc(=O)n(CC(=O)N(C)C)c1C	-2.3	-1.7
Cc1ccc(C)n1-n1c(C)nc2sc3c(c2c1=O)CCCC3	9.7	7.9
CCN1CCC(C(=O)NCc2cccnc2Oc2ccc(F)cc2F)C1 (stereo not given)	-1.5	-1.5
COc1ccc(OCc2ccc(-c3nc(C#N)c(NCCN(C)C)o3)o2)cc1	3.4	12.6
COCCN1N=C(C)C(C)n2c1nc1c2c(=O)n(Cc2c(F)cccc2Cl)c(=O)n1C (stereo not given)	-7.3	-8.5
COc1ccc(-c2nc(Nc3cccc(C(F)(F)F)c3)c3ccccc3n2)cc1	15.5	12.5
O=C(c1ccc2snnc2c1)N1CCOC(COc2cccc(C(F)(F)F)c2)C1 (stereo not given)	6.2	8.8
CC1C(=O)N(c2cccc(Br)c2)CCN1C(=O)COc1ccc(Cl)cc1 (stereo not given)	1.0	10.5
CCCCn1c(N)c(C(=S)NC(=O)CC(C)C)c(=O)n(C)c1=O	-4.7	-7.5
Cn1cccc1CN(CC(O)COCc1ccccc1)CC1CCCO1 (stereo not given)	26.5	28.6
COc1ccccc1N1CCN(c2ncccc2CNC(=O)[C@@H]2C[C@@H](O)CN2)CC1	-7.6	-7.1
COc1ccc(CN(Cc2cccn2Cc2cccc(C(F)(F)F)c2)C2CCCCC2)cc1	1.1	3.4
CCOCCCN(CC(=O)N(Cc1cccn1Cc1ccc(Br)cc1)C1CCCCC1)C(=O)c1ccc(OC)cc1	-7.5	0.8
Cc1cccc(CN(CCc2ccncc2)C2CC2)c1	4.2	2.6
Cc1c(C(=O)N2CCN(C3CCCCC3)CC2)cnn1-c1nccc(-c2ccccc2F)n1	-1.8	-9.9
CNC(=O)[C@@]1(OCc2cccc(Cl)c2)CC(OCc2ccc(C(F)(F)F)cc2)[C@@H]2OC(C)(C)O[C@@H]2C1 (stereo not given in full)	6.1	10.4
CCc1cnc2c(c1OC)c(=O)n(CC(N)=O)c(=O)n2C	-1.6	-2.1
CC(=O)NCc1ccc(C(=O)COc2ccc(C(C)=O)cc2)cc1	7.6	1.9
COC(=O)C(C(N)=S)=P(c1ccccc1)(c1ccccc1)c1ccccc1	8.4	7.3
Cc1cc(C)cc(NCCn2c(C)cn3c4c(=O)n(C)c(=O)n(C)c4nc23)c1	2.0	-6.3
CN(C)c1ccc(C(=O)Nc2ccc3oc(C4CC4)nc3c2)cc1F	1.2	0.0
CC1(Cc2ccc(Cl)cc2)C(=O)Nc2ccc(-c3ccc(F)c(Cl)c3)cc21 (stereo not given)	2.0	2.3
COC(=O)N1CCN(C(C(=O)N2CCCCC2C)C2CCCC2)CC1 (stereo not given)	-4.9	-4.4
CCC(O)C1CCN(c2ncc(C)c(N(C)C)n2)CC1 (stereo not given)	-0.1	-0.3
O=S(=O)(N=Nc1c(O)n(CO)c2ccccc12)c1ccc(Br)cc1	20.9&0.0	19.1&-2.6
COC(=O)C1=CNC=C(C(=O)OC)C1c1ccsc1	-1.9	-3.5
Cc1noc(C)c1CN(C)Cc1nc2ccccc2n1C(C)C	0.0	-1.0

Going on with the list:
Molecule	NPYLR7 agonist	NPYLR7 agonist max-min
CN1CCN(c2nc(C(=O)N3CCCCC3)cs2)C1=O	-3.0	-3.7
COc1ccc(CCNC(=O)CC2CSc3nc4c(c(=O)n32)CCC4)cc1OC (stereo not given)	-1.7	-1.6
O=C(C1Cc2ccccc2C1)N(CCCn1ccnc1)Cc1ccncc1	-0.9	-3.5
Cc1nc(-n2nc(-c3cccs3)cc2NC(=O)CSCc2ccccc2)[nH]c(=O)c1C	4.2	3.4
Cc1cc(NCCc2cccs2)c2nncn2n1	-0.9	19.9
CC(C)Cn1c(N)c(C(=O)COC(=O)C2CSC3(C)CCC(=O)N23)c(=O)n(C)c1=O (stereo not given)	-0.3	-3.6
Fc1ccc(Cc2ccc3ncc(-c4cccnc4)n3n2)cc1F	-3.3	-5.2
CCc1nc2c(OCCOc3ccccc3)cccn2c1N(C)C(=O)c1cccc(OC)c1	12.3	-1.3
COc1c[nH]c(C(=O)NCc2ccc(C)cc2)cc1=O	3.5	2.8
COc1ccc(C(=O)Nc2ccc(-c3nc4ccccc4o3)cc2)cc1	0.5	-0.5
O=C(CCCS(=O)(=O)Cc1ccccc1)Nc1nc2c(s1)Cc1ccccc1-2	3.1	9.1
O=C1Nc2ccccc2C1=NN=CC1=C(N2CCOCC2)C(=Cc2ccccc2)CC1	7.6	8.0
Cc1cccc(C)c1C(=O)c1ccc(O)cc1O	9.7	11.7
CS(=O)(=O)c1nncn1-c1ccccc1	4.2	1.7
Cc1ccc(C2(O)CCN(C(=O)c3ccc(CC4CCCNC4)cc3)CC2)nc1 (stereo not given)	1.6	-0.4

Not a retest: an excerpt of the list.
Molecule	NPYLR7 agonist	NPYLR7 agonist max-min
CS(=O)(=O)c1nncn1-c1ccccc1	4.2	1.7
Cc1ccc(C2(O)CCN(C(=O)c3ccc(CC4CCCNC4)cc3)CC2)nc1 (stereo not given)	1.6	-0.4

The listing picks up, repeating the six entries before the break.
canonical_smiles	NPYLR7 agonist	NPYLR7 agonist max-min
COc1ccc(C(=O)Nc2ccc(-c3nc4ccccc4o3)cc2)cc1	0.5	-0.5
O=C(CCCS(=O)(=O)Cc1ccccc1)Nc1nc2c(s1)Cc1ccccc1-2	3.1	9.1
O=C1Nc2ccccc2C1=NN=CC1=C(N2CCOCC2)C(=Cc2ccccc2)CC1	7.6	8.0
Cc1cccc(C)c1C(=O)c1ccc(O)cc1O	9.7	11.7
CS(=O)(=O)c1nncn1-c1ccccc1	4.2	1.7
Cc1ccc(C2(O)CCN(C(=O)c3ccc(CC4CCCNC4)cc3)CC2)nc1 (stereo not given)	1.6	-0.4
CCCc1cc(C(=O)OCC)nn1C1CCN(S(=O)(=O)c2cc(F)ccc2C)CC1	-9.4	-9.4
CCCCN(Cc1cccn1Cc1ccc(Br)cc1)C(=O)CN(CCCOC)C(=O)C1C[C@H]1c1ccccc1 (stereo not given in full)	-8.0	-12.9
Cc1cc(Br)c(NC(=O)CN(Cc2ccco2)Cc2ccco2)c(Br)c1	5.1	2.0
CCc1ccc(CN2CCC(CNC(=O)Nc3ccccc3)C2)nc1 (stereo not given)	-5.3	-6.5
CC(/C=C1\N=C(c2ccc(Br)cc2)OC1=O)=C\c1ccccc1	-2.6	-5.4
Cn1c(=O)c2c(nc(CN3CCN(Cc4ccccc4)CC3)n2CCCO)n(C)c1=O	0.5	11.4
Cn1c(SCc2nc3ccccc3[nH]2)nc2ccccc21	0.4	-0.3
CCCN(CC(=O)N1CC(=O)N(c2cccc(C)c2)C1)C(=O)C(C)C	6.9	6.7
CCn1c(-c2ccccc2F)nc2cc(C(=O)NC(C)c3cn(C)nc3C)cc(NC(C)=O)c21 (stereo not given)	18.7&12.5	17.1&0.5
Cc1ccc(-c2ccc(OCCNS(=O)(=O)c3ccc(Br)cc3)nn2)cc1	-12.3	-17.2
COCCCn1c(C(=O)Nc2cccnc2)cc2c(=O)n(C)c(=O)n(C)c21	0.3	-2.0
Fc1ccc(COc2ccc(-c3nnco3)cc2)c(Cl)c1	2.4	2.4
O=S(=O)(Nc1ccc2c(c1)CCC2)c1ccc2c(c1)OCCO2	6.5	7.5
CNC(=O)NC(=O)C(C)Sc1nnc(-c2cccs2)n1CC(N)=O (stereo not given)	-0.8	2.3
CCOC(=O)CCc1c(C)nc2ncnn2c1N1CCN(C(=O)C2COc3ccccc3O2)CC1 (stereo not given)	26.5	12.4

Complete entries as entered above. Order of screens: NPYLR7 agonist	NPYLR7 agonist max-min
O=S(=O)(Nc1ccc2c(c1)CCC2)c1ccc2c(c1)OCCO2 in the list: 6.5	7.5
Cc1cc(Br)c(NC(=O)CN(Cc2ccco2)Cc2ccco2)c(Br)c1 in the list: 5.1	2.0

Next results follow:
canonical_smiles	NPYLR7 agonist	NPYLR7 agonist max-min
C=CC[C@@H]1CC=C[C@@H](C)N1C(=O)CCc1ccc(OC)cc1	-1.6	-2.4
CC(C)(CO)NCC(O)c1ccccc1 (stereo not given)	-6.5	-20.2
COc1ccc(Cn2c(C3(c4ccc(Cl)cc4)CCC3)n[nH]c2=S)cc1	-15.6	-22.3
Cc1noc(C)c1C(=O)N1CC[C@@H](c2ccc3ccccc3c2)[C@H](O)C1	0.1	8.9
Cc1ccccc1-c1cnnc(N2CCCC(COc3ccccc3F)C2)n1 (stereo not given)	9.0&-0.5	5.5&-1.5
CCN(CCCCO)C(=O)c1ccc(NC(=O)OC(CCN(C)C)c2ccc(OC)cc2)cc1 (stereo not given)	-1.0	15.9
Cc1cc(C)c(C(=O)N2CCOC(CCN(C)C)C2)o1 (stereo not given)	14.4	4.1
CCOC(=O)CSc1nc2ccccc2n1C	-22.0	-23.2
Cc1nn(C)cc1C(C)Nc1cc(CN)ncn1 (stereo not given)	-0.2	-1.3
COc1cccc(OC)c1CN1CC(O)CN(C(=O)COc2ccccc2)CC1=O (stereo not given)	-6.9	2.7
COc1ccc(C(=O)NC2CC2)cc1OC1CCN(C/C=C/c2ccccc2)CC1	-2.3	-1.0
COCCCN(CC(=O)N(CCc1ccc(OC)c(OC)c1)Cc1cccs1)S(=O)(=O)c1c(C)cc(C)cc1C	9.3	8.5
COC(=O)c1ccc(N2C(=O)CC(NCCc3ccc(OC)c(OC)c3)C2=O)cc1 (stereo not given)	1.8	0.6
CCCc1cc(=O)[nH]c(-n2nc(C)cc2NC(=O)c2ccc(S(=O)(=O)N(CC)CC)cc2)n1	6.7	0.1
CCOC(=O)C1CCCCN1CC(=O)N1N=C(c2ccccc2OC)CC1c1ccc(OCC)cc1 (stereo not given)	-13.8	-11.3
CCOc1ccccc1-c1cc(C(=O)O)c2[nH]c(C)nc2n1	2.8	1.5
